Compound activity from PubChem BioAssay.
VDR inh = Inhibitors of the vitamin D receptor (VDR): qHTS; Vitamin D3 receptor (Homo sapiens), P11473; VDR-SRC2-3 peptide fluorescence polarization, 2 h; Potency, µM, for inactives: max response, negative = inhibition, most hits filed as inhibitors; 0.93% of 400,000 active; active = well fitted inhibition curve with a large enough effect; inconclusive = small, poorly fitted or top-dose-only effect, or another doubt; inactive = no such curve, though single readings can be large or run the other way; note: series mostly up to about 120 µM
Target sequence (P11473 whole entry, looked up): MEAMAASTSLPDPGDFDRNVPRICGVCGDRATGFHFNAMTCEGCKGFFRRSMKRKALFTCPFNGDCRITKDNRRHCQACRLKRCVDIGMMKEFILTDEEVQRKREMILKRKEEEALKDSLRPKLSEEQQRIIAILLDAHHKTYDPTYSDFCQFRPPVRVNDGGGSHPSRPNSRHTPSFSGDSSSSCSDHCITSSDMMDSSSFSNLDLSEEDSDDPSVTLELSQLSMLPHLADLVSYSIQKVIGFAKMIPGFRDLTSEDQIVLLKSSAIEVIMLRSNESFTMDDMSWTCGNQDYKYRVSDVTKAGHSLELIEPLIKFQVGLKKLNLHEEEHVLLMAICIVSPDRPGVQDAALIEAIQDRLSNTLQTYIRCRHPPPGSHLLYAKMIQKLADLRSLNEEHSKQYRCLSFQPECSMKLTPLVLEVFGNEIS
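Compounds are added to VDR with labelled SRC2-3 coactivator peptide and held 2 h at room temperature. Inhibition of the VDR–peptide interaction is then read as a change in fluorescence polarization.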
* marks the source's active call; other numbers are inactive results; ? = inconclusive; & = joins results of further samples. % is set by controls: 0 for no effect and ±100 for the full control effect; potency is the fitted concentration of half-maximal effect.

The opening 2 entries (preview)
structure | VDR inh
COc1nc(C)cc(C)c1S(=O)(=O)c1ccccc1 | 5%
CCc1cccc(C)c1NC(=O)c1cc(CN2CCCC2)on1 | -3%

The whole of this part, from the start:
structure | VDR inh
COc1nc(C)cc(C)c1S(=O)(=O)c1ccccc1 | 5%
CCc1cccc(C)c1NC(=O)c1cc(CN2CCCC2)on1 | -3%
CC(C)OCCCNc1ncnc2c1[nH]c1ccccc12 | 13%
CC(=O)c1ccc(N2CCN(S(=O)(=O)c3ccc4[nH]c5c(c4c3)CCCC5)CC2)cc1 | 6%
COc1ccc(N2CCN(C(=O)CNC(=O)c3ccco3)CC2)cc1 | ?
COc1cc(C(=O)NCC(=O)OCC(=O)c2cccc3ccccc23)cc(OC)c1OC | -6%
CCOc1ccc(S(=O)(=O)N2CCCCC2)cc1NC(=O)CSCc1c(C)noc1C | -9%
CCN1CCc2c(sc(NC(=S)NC(=O)c3ccco3)c2C(N)=O)C1 | -11%
Cc1ccc(-c2cc(C(=O)NCCc3ccccc3)c3c(-c4ccc(C)cc4)[nH]nc3n2)cc1 | 12%
O=C1N[C@@H](Cc2ccccc2)COC(=O)[C@H](Cc2ccc(F)cc2)C/C=C\C[C@H]1CC(=O)N(CCO)Cc1ccccc1 | -10%
CC(=O)Nc1c(Cl)cc2c(c1Cl)C(=O)c1ccccc1-2 | 12%
Cc1cccc(N2CCN(C(=O)c3ccncc3)CC2C)c1 (stereo unspecified) | -6%
N#CCC(=O)N/N=C/c1ccc(N2N=C(c3ccccc3)CC2c2ccccc2)cc1 (stereo unspecified) | -22%
Nc1nc(N)nc(-c2cccc(Br)c2)n1 | -5%
Cc1cc(-c2nc3ccccc3s2)ccc1N | 1%
Cc1cc(NC(=O)CSc2nc3cc4c(cc3c(=O)n2CCc2ccccc2)OCO4)no1 | -2%

Random excerpt: five records from the list
structure | VDR inh
N#CCC(=O)N/N=C/c1ccc(N2N=C(c3ccccc3)CC2c2ccccc2)cc1 (stereo unspecified) | -22%
O=C1N[C@@H](Cc2ccccc2)COC(=O)[C@H](Cc2ccc(F)cc2)C/C=C\C[C@H]1CC(=O)N(CCO)Cc1ccccc1 | -10%
Cc1ccc(-c2cc(C(=O)NCCc3ccccc3)c3c(-c4ccc(C)cc4)[nH]nc3n2)cc1 | 12%
Nc1nc(N)nc(-c2cccc(Br)c2)n1 | -5%
CC(=O)Nc1c(Cl)cc2c(c1Cl)C(=O)c1ccccc1-2 | 12%

Continuation.
structure | VDR inh
O=C(O)COc1ccccc1C=NNC(=O)c1ccc(NS(=O)(=O)c2cccs2)cc1 | 5%
C=CCNC(=O)c1onc(CSc2cccc(C)c2)c1C(=O)O | -10%
O=[N+]([O-])c1ccccc1/C=C/CN1CCC(O)CC1 | -7%
CCN(Cc1ccccc1)S(=O)(=O)c1ccc(S(=O)(=O)N(Cc2cccc(OC)c2)CC2CCCO2)cc1 (stereo unspecified) | 0%
COc1ccccc1CC(=O)NC(=O)c1ccccc1O | -6%
CC(C)CN1C(=O)N(c2ccc(Cl)cc2)C(C)(O)CC1(C)C (stereo unspecified) | -7%
COc1cc(/C=C/C(=O)Nc2ccc(S(=O)(=O)Nc3onc(C)c3C)cc2)cc(OC)c1OC | -1%
Cn1c(SCC(=O)N2CCCc3ccccc32)nnc1-c1cccs1 | 0%
Cc1ccc2c(CC(=O)N3CCc4ccccc43)coc2c1 | 6%
Nc1ncnc2c1ncn2[C@@H]1O[C@H](CNS(=O)(=O)c2cc(S(=O)(=O)c3ccccc3)cs2)[C@@H](O)[C@H]1O | 1%
CCn1cc([N+](=O)[O-])nc1C | -16%
CC1CC(C(F)F)n2nc(C(=O)O)cc2N1 (stereo unspecified) | 9%
COc1ccc(C=NNc2nc3c([nH]2)c(=O)n(C)c(=O)n3C)cc1 | -1%
COc1ccc([N+](=O)[O-])cc1NC(=O)Cc1ccc(Cl)cc1 | -20%
O=C(Nc1ccc2nc(SCC(=O)N3CCc4ccccc43)sc2c1)c1cccc(Cl)c1 | 11%
O=C(Nc1ccc(-c2nnc3n2CCCCC3)cc1)c1cc2ccccc2o1 | 3%
Cc1ccccc1Nc1nnc(-c2ccc(C)c(S(=O)(=O)N3CCOCC3)c2)c2ccccc12 | -18%
COc1ccc2c(c1)CCc1c(C(=O)Nc3c(C)nn(Cc4ccc(Cl)c(Cl)c4)c3C)noc1-2 | -10%
COC(=O)C1=C(C)N=C2SCCC(=O)N2C1c1cccs1 (stereo unspecified) | 12%
O=C(Cn1nnc2ccccc2c1=O)N[C@@H](Cc1c[nH]c2ccccc12)C(=O)O | 1%
CCCCc1ccc(-n2nc3cc(C)c(NC(=O)c4ccc(C#N)cc4F)cc3n2)cc1 | -11%
CCOC(=O)COc1ccc2c(C)cc(=O)oc2c1C(=O)c1ccccc1 | -7%
O=C(OCC(=O)N1CCc2ccccc21)[C@@H]1CC(O)CN1S(=O)(=O)c1ccc(Cl)cc1 (stereo partly specified) | 7%
Cc1cccc(C)c1NC(=O)Cn1c(=O)n(CCCS(=O)(=O)C2CCCCC2)c(=O)c2ccccc21 | 1%
CCc1nc2scc(-c3ccccc3)c2c(=O)n1N | -5%
Cc1ccc(NC(=O)COC(=O)c2ccc([N+](=O)[O-])o2)cc1S(=O)(=O)N1CCCCC1 | 0%
COc1ccc(CNC(=O)C2CCN(c3nc4ccc(C)cc4[nH]3)CC2)cc1 | 12%
O=C1C(=O)N(CCO)C(c2cccc(F)c2)/C1=C(\O)c1ccc(Cl)cc1 (stereo unspecified) | ?
Cc1ccc(-n2c(C)n[nH]c2=S)cc1 | 18%
O=C(Cc1ccccc1)NCC(=O)N1CCCC1 | 0%
CCc1ccccc1N1C(=O)CN(S(=O)(=O)CC)CC1(C)C(=O)NC1CCCCC1 (stereo unspecified) | 15%
CC1=C(C(=O)Nc2ccccc2C(=O)NC2CCCCC2C)SCCO1 (stereo unspecified) | 14%
O=C(CSc1nc2ccccc2c(=O)n1Cc1ccco1)c1ccccc1 | -4%
O=C(c1cc2cc(F)ccc2[nH]1)N1CCCC(Nc2ccc(F)cc2)C1 (stereo unspecified) | 8%
COc1ccc(CCNC(=O)CN2C(=O)NC3(CCCCC3C)C2=O)cc1 (stereo unspecified) | -10%
O=C(O)CC1SC(=O)N(Cc2ccccc2)C1=O (stereo unspecified) | -11%
CCCCC(=O)Nc1ccc(C(=O)N2CCN(C)CC2)cc1 | -4%
Cc1c(NC(=O)C2CCCN2S(=O)(=O)c2cccc3nsnc23)cccc1C(=O)O (stereo unspecified) | -10%
CCNc1nc(NCC)nc(OCC(=O)O)n1 | 1%
CC(=O)Oc1cccc(NC(=O)c2cccc(C(=O)Nc3cccc(OC(C)=O)c3)c2)c1 | -28%
COc1ccc(C(=O)N2CCN(C(=O)c3ccc(-c4ccccc4)cc3)CC2)cc1OC | -4%
COc1cc(OC)c(NC(=O)c2c(C)oc3nc(C)nc(N4CCOCC4)c23)cc1Cl | 2%
CCOC(=O)C1=C(c2ccccc2)NC(=S)NC1c1cc([N+](=O)[O-])ccc1OC (stereo unspecified) | -18%
COC(=O)c1ccccc1NC(=O)CSCC(=O)Nc1ccc(F)cc1 | -2%
CCN1CCN(C(=O)/C=C/c2ccc(OC)cc2)CC1 | 5%
COc1ccc(CN(C)C(=O)c2ccc(Oc3ccccc3)cc2)cc1F | -8%
COc1cc(/C=C2\CCC(C3CCCC3)C2=O)ccc1OC(C)C (stereo unspecified) | 3%
O=C(CSCC(=O)N1CCOCC1)Nc1ccccc1 | 3%
Cc1ccccc1NC(=O)Nc1csc2c1CCCC2 | 3%
O=C(N/C(=C\c1ccc([N+](=O)[O-])cc1)C(=O)N1CCOCC1)c1cccc(Br)c1 | 4%
CCNc1ncc2nc(-c3ccccc3)c(=O)n(CCC#N)c2n1 | -2%
CCOC(=O)C1CCN(S(=O)(=O)c2ccc(Br)c(OCC)c2)CC1 | -5%
COc1ccc(/C(C)=N/NC(=O)CNC(=O)/C=C\c2ccccc2OC)c(OC)c1 | -15%
O=C(NCc1cc(C(F)(F)F)ccc1Cl)c1cccc2c1C(=O)c1ccc(N3CCOCC3)cc1S2(=O)=O | -22%
Cc1c(S(=O)(=O)N2CCCC(C)C2)c(=O)n(C)c(=O)n1C (stereo unspecified) | 6%
Cc1ccccc1-c1cc(C(=O)NCc2cccs2)n(CC2CC(c3cccnc3)=NO2)n1 (stereo unspecified) | 2%

Continuation:
structure | VDR inh
O=C(NC(NC(=S)Nc1ccccc1C(=O)O)C(Cl)(Cl)Cl)c1ccccc1 (stereo unspecified) | 79µM*
CCCCNC(=O)NNc1nc(Cl)cc(C)c1C#N | -19%
COc1cc(NC(=O)Cn2nc(Cc3cccnc3)c3ccccc3c2=O)cc(OC)c1OC | -5%&-17%
COc1ccccc1N(CC(=O)NCc1ccco1)C(=O)CCC(=O)Nc1ccccn1 | -6%
CC1(C)Cn2c(nnc2-c2ccccc2)S1 | -7%
CN1CCN(C(=S)C(=O)NCc2ccccc2)CC1 | -6%
COc1cccc(NC(=O)C(C)OC(=O)c2n[nH]c3ccccc23)c1 (stereo unspecified) | -11%
Cc1cccc(C)c1OC(=O)c1ccccc1 | -1%
CCSc1nc(C)c(CC)c(C)c1C(N)=O | 12%
COc1ccc(NC(=S)c2ccccc2)cc1 | 15%
Cc1ccccc1C(=O)NCC(=O)OC1CCCCC1=O (stereo unspecified) | -21%
O=C(NCCc1ccc(Cl)cc1)C1CCCN1C(=O)Nc1ccccc1 (stereo unspecified) | -1%
Oc1c(Cl)cc(Cl)c2c1NCCC2 | 32µM*
O=C(c1ccc(Cl)c(S(=O)(=O)NCc2cccnc2)c1)N1CCCC1 | -21%
CCn1c(SCC(=O)Nc2nc3ccc(OC)cc3s2)nc2c1c(=O)n(C)c(=O)n2C | 0%
O=C(O)c1ccc(N/N=C/c2cc3ccccc3nc2Cl)cc1 | ?
Cc1ccc(NC(=O)COC(=O)c2ccnn2C)cc1 | -7%
O=C(NCCc1ccccc1)C1CCN(C(=O)N2CCOc3ccccc32)CC1 | -8%
C#CCN(CC=C)C(=O)c1ccc(OC2CCN(S(=O)(=O)N(C)C)CC2)cc1 | -4%
CN(C)C(=O)CCc1ccc2c3c([nH]c2c1)[C@]1(CCC2CCCC2)[C@@H](C(=O)N2CCOCC2)C[C@H](CC(=O)NCc2ccco2)C(=O)N1CC3 | 13%
CCCNS(=O)(=O)c1ccc(CCC(=O)Nc2ccc3c(c2)OCO3)cc1 | -1%
NC12CC3CC(C1)CC(CO)(C3)O2 | 18%
Cc1ccc(-c2nn(-c3ccccc3)cc2C=C2C(=O)CC(C)(C)CC2=O)cc1 | 25µM*
Cc1cccc(C(=O)O/N=C(\N)c2ccccn2)c1 | 6%
CCC(=O)c1ccc(OCC(=O)N(Cc2nnc(-c3ccccc3Cl)o2)C2CC2)cc1 | 10%
COc1ccc(C(=O)OCC(=O)c2ccc3[nH]c(=O)[nH]c3c2)c(OC)c1OC | -11%
CC(C)(c1ccccc1)c1ccc(OCCN2CCCC2)cc1 | -5%
CNC(=O)c1cc2c(ccc3ccccc32)o1 | 3%
C[C@@H]1COC(=O)[C@H](CC(=O)OC(C)(C)C)C/C=C\C[C@H](CC(=O)N(CCO)Cc2ccccc2)C(=O)N1 | -18%
CC1CCCN(c2ccc(C(=O)OCn3nnc4ccccc4c3=O)cc2[N+](=O)[O-])C1 (stereo unspecified) | -20%
CC1C(=O)Nc2ccc(S(=O)(=O)N3CCN(c4cccc(C(F)(F)F)c4)CC3)cc2NC1=O (stereo unspecified) | 13%
Cc1ccc(Cn2cccc(NC(=O)NCc3ccccc3)c2=O)cc1 | -3%
Cc1cccc(C)c1OC(=O)Cc1ccccc1[N+](=O)[O-] | -6%
CC(C)Nc1ccc(-n2nc3ccccc3[n+]2[O-])cc1 | -3%
CCCc1nn(C)c(C(=O)Nc2ccc(C)c(C)c2)c1Cl | 10%
CCN(CC)C(=O)Cn1nnc2sc(-c3ccccc3)cc2c1=O | 4%
COC(=O)c1ccc(NC(=S)NC2CCc3ccccc32)cc1 (stereo unspecified) | -10%
Fc1ccccc1Nc1nc(Cl)nc(Cl)n1 | 71µM*
O=c1c(Cl)c(Cl)cnn1Cc1nnc(-c2ccccc2Br)o1 | ?
CCS(=O)(=O)c1ccc2c(c1)N(S(C)(=O)=O)CC(C(=O)NC1CC1)O2 (stereo unspecified) | 4%

A stretch of the results above, for reference:
structure | VDR inh
Cc1ccccc1NC(=O)Nc1csc2c1CCCC2 | 3%
O=C(N/C(=C\c1ccc([N+](=O)[O-])cc1)C(=O)N1CCOCC1)c1cccc(Br)c1 | 4%

The listing continues.
structure | VDR inh
S=C1N(c2ccccc2)CN(CCN2CCOCC2)CN1c1ccccc1 | 6%
COc1ccccc1CC(=O)Nc1ccc2nc(N3CCC(C)CC3)cc(C)c2c1 | -12%
COc1ccc(-n2c(=O)c3c(c4cc(OC)ccc4n3C)n(CC(=O)NCC3CCCO3)c2=O)cc1 (stereo unspecified) | -2%
CN1C(=O)/C(=C/c2cc3c(cc2Br)OCO3)NC1=S | 9%
CC(=O)c1c(C)[nH]c(C(=O)Nc2cccc3ccccc23)c1C | 4%
O=[N+]([O-])c1cc(S(=O)(=O)C(F)(F)F)ccc1N1CCN(c2ccccc2)CC1 | -15%
CN(C)C(=O)CCc1ccc2c3c([nH]c2c1)[C@]1(C)[C@@H](C(=O)N2CCOCC2)C[C@H](CC(=O)NCCN2CCOCC2)C(=O)N1CC3 | -9%
COc1ccc(S(=O)(=O)N2CCSCC2)cc1C(N)=O | 9%
Cc1ccc(S(=O)(=O)N2CCCC2=O)c(C)c1N(C)S(C)(=O)=O | 2%
Cc1ccc(NC(=O)CSCC(=O)N=c2sccn2C)cc1 | -2%

A portion of the library; count on the stated rates, not on these rows.
